KCNQ2 block: KCNQ2 channel blockers in CHO-K1 cells – cell-based, FluxOR thallium flux, B-score, primary screen (AID 2156) | O88943 | 20 min; hits give low values; only compounds with negative scores are shown here; some inactives read as strong as hits | B-score at 10 µM | 310,000 compounds, 1.1% hits;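 active means fluorescence ratio B-score at most minus 3 library SDs, with starting brightness B-score within 2 library SDs, cut at about -5.5 in these data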
KCNQ2 block baseline: recorded beside KCNQ2 block, whose call it bears; B-score; measured here: initial fluorescence intensity artifact check;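 brightness before thallium and not channel activity; 0 = typical well and far values either way flag optical interference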
Numbers without * were called inactive; i = inactive. The list is partial (hit frequency here may not be typical).

1) O=C1NC(=O)N(CCc2ccc(F)cc2)C(=O)/C1=C/C=C/c1ccccc1
  KCNQ2 block = i
  KCNQ2 block baseline = -0.34

2) CC(=O)NC(Cc1ccc(N(CCCl)CCCl)cc1)C(=O)NC(CC(C)C)C(=O)O (stereo not drawn)
  KCNQ2 block = i
  KCNQ2 block baseline = 2.1

3) O=c1c2ccccc2nc(-c2ccc(Cl)cc2Cl)n1-c1ccncc1
  KCNQ2 block = i
  KCNQ2 block baseline = -0.91

4) NNP(=O)(CC(=O)c1ccccc1)c1ccccc1 (stereo not drawn)
  KCNQ2 block = i
  KCNQ2 block baseline = 2.4

5) Cc1cc(/C=C2\C(=O)NC(=O)N(c3ccc(Cl)cc3)C2=O)c(C)n1-c1cccc(C(=O)O)c1
  KCNQ2 block = i
  KCNQ2 block baseline = 0.98

6) O=C(OCC(=O)c1ccc([N+](=O)[O-])cc1)/C(=C/c1ccc(Cl)cc1)NC(=O)c1ccccc1
  KCNQ2 block = i
  KCNQ2 block baseline = -0.64

7) COc1ccc(-c2cc(=O)c3c(OC)c(OC)c(OC)cc3o2)cc1
  KCNQ2 block = i
  KCNQ2 block baseline = -0.04

8) COc1ccccc1N1CCNCC1
  KCNQ2 block = i
  KCNQ2 block baseline = -0.69

9) NCCc1c[nH]c2ccc(OCc3ccccc3)cc12
  KCNQ2 block = i
  KCNQ2 block baseline = -0.6

10) COc1cccc(N2C(=O)NC(=O)C3(Cc4cc(C)ccc4N(C)C3)C2=O)c1 (stereo not drawn)
  KCNQ2 block = i
  KCNQ2 block baseline = 1.9

Reprinted at random: five entries already listed.
7) COc1ccc(-c2cc(=O)c3c(OC)c(OC)c(OC)cc3o2)cc1
  KCNQ2 block = i
  KCNQ2 block baseline = -0.04

10) COc1cccc(N2C(=O)NC(=O)C3(Cc4cc(C)ccc4N(C)C3)C2=O)c1 (stereo not drawn)
  KCNQ2 block = i
  KCNQ2 block baseline = 1.9

1) O=C1NC(=O)N(CCc2ccc(F)cc2)C(=O)/C1=C/C=C/c1ccccc1
  KCNQ2 block = i
  KCNQ2 block baseline = -0.34

5) Cc1cc(/C=C2\C(=O)NC(=O)N(c3ccc(Cl)cc3)C2=O)c(C)n1-c1cccc(C(=O)O)c1
  KCNQ2 block = i
  KCNQ2 block baseline = 0.98

8) COc1ccccc1N1CCNCC1
  KCNQ2 block = i
  KCNQ2 block baseline = -0.69

Next records follow:
11) COc1ccc(Cc2nccc3cc(OC)c(OC)cc23)cc1OC
  KCNQ2 block = i
  KCNQ2 block baseline = -0.77

12) CC(C)[C@H]1C(=O)O[C@H](C(C)C)C(=O)N(C)[C@@H](C(C)C)C(=O)O[C@H](C(C)C)C(=O)N(C)[C@@H](C(C)C)C(=O)O[C@H](C(C)C)C(=O)N1C
  KCNQ2 block = i
  KCNQ2 block baseline = -1.7

13) Cc1cc(OCC(=O)N2CCC(C(=O)O)CC2)c2c3c(c(=O)oc2c1)CCCC3
  KCNQ2 block = i
  KCNQ2 block baseline = 3.1

14) COc1ccc2c(c1)C13CCCC[C@@H]1C(C2)N(C)CC3 (stereo partly drawn)
  KCNQ2 block = i
  KCNQ2 block baseline = 1.2

15) CCCCn1c(O)c(C(CC)=NCCN2CCCCC2)c(=O)[nH]c1=O
  KCNQ2 block = i
  KCNQ2 block baseline = -0.12

16) O=c1oc2ccccc2c(O)c1C(c1ccc([N+](=O)[O-])cc1)c1c(O)c2ccccc2oc1=O
  KCNQ2 block = i
  KCNQ2 block baseline = 0.35

17) O=C(N/N=C/c1c(O)n(Cc2ccco2)c(=O)[nH]c1=O)c1ccccc1O
  KCNQ2 block = i
  KCNQ2 block baseline = 0.13

18) N=C1c2ccccc2CN1NC(=O)c1ccccc1
  KCNQ2 block = i
  KCNQ2 block baseline = -0.15

19) CN1CCCN(C(=O)COc2cccc(C(F)(F)F)c2)CC1
  KCNQ2 block = i
  KCNQ2 block baseline = -0.99

20) COc1ccc(-c2cc(=Nc3ccccc3)c3cc(C)ccc3o2)cc1
  KCNQ2 block = i
  KCNQ2 block baseline = -0.71

21) Cc1ccc(-c2nc3ccccc3c(=O)n2-c2ccc(Br)cn2)cc1
  KCNQ2 block = i
  KCNQ2 block baseline = -0.39

Down the list, from the results shown.
KCNQ2 block baseline for entries 11 to 19: -0.77, -1.7, 3.1, 1.2, -0.12, 0.35, 0.13, -0.15, -0.99
